Screening data (PubChem BioAssay)
TSHR ag = qHTS Assay for Agonists of the Thyroid Stimulating Hormone Receptor; actives 0.48% (n = 73,000); Potency, µM (series often up to 57.1 µM), for the others: at the top dose activation, usual class: activators; Thyrotropin receptor (Homo sapiens), P16473; HEK293-CNG-TSHR cells (CNG channel as cAMP sensor), membrane potential dye, cAMP; active = well fitted activation curve of enough size with the parental cells flat; inconclusive = any curve in the parental cells; inactive = parental cells flat and receptor cells flat or falling; also: potency is read from the fitted curve at half-maximal effect; % of control where 0% means no effect; weak receptor curves with flat parental cells got no call and are not listed
Target sequence (P16473 whole entry, looked up): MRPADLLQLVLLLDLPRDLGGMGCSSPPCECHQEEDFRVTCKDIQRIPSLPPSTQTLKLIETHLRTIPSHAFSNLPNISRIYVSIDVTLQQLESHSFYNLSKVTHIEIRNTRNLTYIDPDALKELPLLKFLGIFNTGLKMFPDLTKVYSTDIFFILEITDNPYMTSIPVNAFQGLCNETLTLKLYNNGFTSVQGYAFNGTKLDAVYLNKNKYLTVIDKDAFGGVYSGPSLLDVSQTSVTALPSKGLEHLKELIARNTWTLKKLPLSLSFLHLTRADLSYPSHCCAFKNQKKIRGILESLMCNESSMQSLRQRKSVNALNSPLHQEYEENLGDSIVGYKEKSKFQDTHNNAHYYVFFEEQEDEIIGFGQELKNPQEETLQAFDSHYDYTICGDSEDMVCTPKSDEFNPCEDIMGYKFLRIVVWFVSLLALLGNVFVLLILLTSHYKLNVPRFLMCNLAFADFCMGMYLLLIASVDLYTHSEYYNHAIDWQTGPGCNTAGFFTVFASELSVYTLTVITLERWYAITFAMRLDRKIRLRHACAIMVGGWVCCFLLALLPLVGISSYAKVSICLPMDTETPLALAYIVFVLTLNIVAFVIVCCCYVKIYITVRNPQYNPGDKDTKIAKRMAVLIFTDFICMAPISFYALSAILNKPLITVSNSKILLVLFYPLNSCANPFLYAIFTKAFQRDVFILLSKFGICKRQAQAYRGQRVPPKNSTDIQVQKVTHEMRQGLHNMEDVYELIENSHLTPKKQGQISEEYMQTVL
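cAMP rise detected as CNG-channel membrane depolarization by fluorescent dye (emission 590 nm), 30 min after compound, following 60 min dye loading containing 100 uM RO 20-1724 at room temperature. Cells: TSHR/CNG HEK 293, with parental CNG HEK 293 as control.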
A647 autofl = qHTS Assay for Spectroscopic Profiling in A647 Spectral Region; Compound fluorescence, A647 channel (570/671 nm), Tris buffer; max dye-equivalent concentration, M; 59,000 tested, under 10 active; AID 592, 2007; active means above 1 µM dye equivalent; inconclusive means 0.1 to 1 µM; inactive means 0.1 µM or less;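 also: values scaled relative to a standard on each plate; highest value over a series up to 38 µM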
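Fluorescence read (570 nm ex, 671 nm em) after 15 min RT incubation of compounds in 100 mM Tris buffer, pH 8.0; values expressed as dye-equivalent concentration against a six-point A647 standard series on each plate.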
AID923 = qHTS Assay for Allosteric/Competitive Inhibitors of Caspase-1: Spectroscopic Profiling in AFC Spectral Region. compound fluorescence, AFC spectral region (405/520 nm); almost no hit is shown here. Potency, µM (doses to about 57.5 µM), without a hit: top-dose fluorescence increase, most hits filed as activators. actives 1.1% (n = 75,000); active = well fitted activation curve with a large enough effect; inconclusive = small, poorly fitted or top-dose-only effect;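 also: potency is read from the fitted curve at half-maximal effect; 0% is about no effect; scaled to a free AFC standard on each plate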
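Compound autofluorescence profiled at 405 nm ex/520 nm em during kinetic caspase 1 run (50 nM enzyme, 5 uM Ac-WEHD-AFC, HEPES pH 7.5, 10 mM DTT). Titration up to 57 uM; baseline from regression intercept, normalized to AFC standard curve.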
Resorufin autofl = qHTS Assay for Spectroscopic Profiling in Resorufin Spectral Region; max dye-equivalent concentration, M; Compound fluorescence, resorufin region 547/598 nm, buffer; hits give high values; actives 0.04% (n = 59,000); active = above 10 nM dye equivalent; inconclusive = 1 to 10 nM; inactive = 1 nM or less; a few of its hits are not listed in these tables; also: highest value over a series up to 38 µM
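Compounds in 100 mM Tris buffer, pH 8.0, incubated 15 min at room temperature, then read with 547 nm excitation and 598 nm emission filters. Fluorescence was converted to dye-equivalent concentration using an on-plate six-point resorufin standard curve.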
A488 fluor = qHTS Assay for Spectroscopic Profiling in A488 Spectral Region | AID 591, 2007 | actives 0.1% (n = 59,000) | max dye equivalency, M | compound autofluorescence, A488 spectral region, dye equivalency; hits give high values; active = above 10 nM dye equivalent; inconclusive = 1 to 10 nM; inactive = 1 nM or less; about half of its hits are not listed in these tables;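 also: highest value over a series up to 38 µM; compound alone in buffer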
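Spectroscopic profiling in the A488 region: compounds in pH 8.0 Tris (100 mM), 15 min RT, CCD imaging with 480 nm excitation and 540 nm emission; responses normalized against A488 dye standards.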
* marks the source's active call; other numbers are inactive results; i = inactive; ? = inconclusive; · = no result given; & = joins results of further samples; [ ] = remark or other dose.

Start of the listing, in advance:
SMILES	TSHR ag	A647 autofl	AID923	Resorufin autofl	A488 fluor
CCOP(=S)(OCC)c1ccc(N(C)C)cc1	?	6.3e-09	-1.5%	i	i
Cc1oc2ccc(OC(=O)N(C)C)cc2c1C(=O)OC(C)C	7%	1e-09	0.0%	i	i
O=C(Oc1ccccc1)N1CCC[C@@]2(CCN(Cc3cc(C(F)(F)F)cc(C(F)(F)F)c3)C2)C1	?	2.1e-08	0.7%	i	i
C=C1[C@@H]2CC[C@H]3[C@@]4(C)C[C@@H](O[C@@H]5O[C@H](CO)[C@H](OS(=O)(=O)O)[C@@H](OS(=O)(=O)O)[C@@H]5OC(=O)CC(C)C)C[C@@H](C(=O)O)[C@H]4CC[C@@]3(C2)[C@H]1O	4%[25.6 µM]	1.3e-08	-1.1%[25.7 µM]	i	i

The listing, previewed entries included:
SMILES	TSHR ag	A647 autofl	AID923	Resorufin autofl	A488 fluor
CCOP(=S)(OCC)c1ccc(N(C)C)cc1	?	6.3e-09	-1.5%	i	i
Cc1oc2ccc(OC(=O)N(C)C)cc2c1C(=O)OC(C)C	7%	1e-09	0.0%	i	i
O=C(Oc1ccccc1)N1CCC[C@@]2(CCN(Cc3cc(C(F)(F)F)cc(C(F)(F)F)c3)C2)C1	?	2.1e-08	0.7%	i	i
C=C1[C@@H]2CC[C@H]3[C@@]4(C)C[C@@H](O[C@@H]5O[C@H](CO)[C@H](OS(=O)(=O)O)[C@@H](OS(=O)(=O)O)[C@@H]5OC(=O)CC(C)C)C[C@@H](C(=O)O)[C@H]4CC[C@@]3(C2)[C@H]1O	4%[25.6 µM]	1.3e-08	-1.1%[25.7 µM]	i	i
CNc1ccc2oc(C[C@H]3O[C@]4(CC[C@H]3C)O[C@H]([C@H](C)C(=O)c3ccc[nH]3)[C@H](C)C[C@H]4C)nc2c1C(=O)O	-1%	·	-1.3%	·	·
O=[N+]([O-])c1ccc(F)c([N+](=O)[O-])c1	14%	·	-3.5%	·	·
c1ccc(N2CC3(CCNCC3)C2)cc1	?	1.4e-08	0.0%	i	i
CC(C)(c1ccc(O)cc1)c1ccc(O)cc1	-7%	·	-2.0%&1.9%	·	·
CCOCC(=O)NC1CCSC1=O (stereo not given)	1%	1e-09	1.1%	i	i
COc1ccc(CC2C(=O)NC(=O)N(c3ccccc3)C2=O)c(OC)c1 (stereo not given)	11%	·	8.4%	·	·
CC(=O)c1c(C)n(CCCOC(C)C)c2ccc(O)cc12	14%	1e-09	0.3%	i	i
Cc1cc(OCc2nn[nH]n2)c2c3c(c(=O)oc2c1)CCC3	13%	2.2e-09	-0.4%	i	i
C=C(C)[C@H]1[C@H]2OC(=O)[C@@H]1[C@]1(O)C[C@H]3O[C@]34C(=O)O[C@H]2[C@@]14C	0%[25.6 µM]	7.3e-09	-2.0%[25.7 µM]	i	i
COC(=O)[C@@H]1[C@@H](O)[C@@]2(O)c3c(OC)cc(OC)cc3O[C@@]2(c2ccc(OC)cc2)[C@H]1c1ccccc1	-4%[11.4 µM]	·	-0.8%[11.5 µM]	·	·
CCOC(=O)CC1=C(C(=O)OCC)C2(C(=O)Nc3ccccc32)C(C#N)=C(N)O1 (stereo not given)	1%	3.4e-08	0.0%	i	i
CC(C)CC(N)C1(c2ccc(Cl)cc2)CCC1 (stereo not given)	?	·	0.0%	·	·
CCSP1(=S)N=C(N2CCOCC2)C(C#N)=C2CCCN21 (stereo not given)	-13%	4e-08	-0.4%	i	i
OC(CNC1CCCCC1)c1ccccc1 (stereo not given)	3%	·	1.5%	·	·
COC(=O)[C@@H]1C[C@@]1(C)[C@@H](NP(=O)(c1ccccc1)c1ccccc1)c1ccccc1	?	·	-1.6%	·	·
CC(C)(C)c1cc(C#N)cc(Br)c1OP(=O)(Oc1c(Br)cc(C#N)cc1C(C)(C)C)c1ccccc1	8%[11.4 µM]	1e-09	0.5%[11.5 µM]	i	i
O=C(O)c1cc2ccccc2oc1=O	?	·	2.7%	·	·
N[C@@H](CP(=O)(O)O)C(=O)O	-1%[11.4 µM]	1e-09	0.1%[11.5 µM]	i	i
CC(=O)Nc1cc(C(=O)N2CCC3(CC2)OCCO3)ccc1S(=O)(=O)c1ccc(C)cc1	16%	2.4e-09	-1.4%	i	i
CC(C)[C@@]1(NC(=O)[C@@H]2C[C@H]3c4cccc5[nH]cc(c45)C[C@@H]3N(C)C2)O[C@]2(O)[C@H]3CCCN3C(=O)CN2C1=O	8%[25.6 µM]	2.5e-08	0.6%[25.7 µM]	i	i
CC1(C)COC(Nc2ccc(Cl)cc2)=N1	15%	4.8e-09	0.2%	i	i
SMILES	TSHR ag	A647 autofl	AID923	Resorufin autofl	A488 fluor
C[C@@H](Cc1ccc(OCC(=O)O)cc1)NC[C@H](O)c1cccc(Cl)c1	19%&14%	8.9e-09	-0.8%&0.4%	i	i
COc1cc(OC)c(OC)cc1C=O	?	·	-1.7%	·	·
Nc1ccnn1C1CCNCC1	-5%	3.8e-08	0.8%	i	i
Nc1nnnn1CCO	8%[11.4 µM]	4.7e-08	-1.4%[11.5 µM]	i	i
CN=C=S	1%	·	0.6%	·	·
CCCCN1C(=O)NC(=O)C2(Cc3c(nc4ccccn4c3=O)N3CCc4ccccc4C32)C1=O (stereo not given)	26%	3.9e-08	2.1%	i	i
COC(=O)c1ccccc1OP1(=O)COc2ccccc2OC1	7%	3.7e-08	2.0%	i	i
CNC[C@H](O)c1ccc(O)cc1	-4%[25.6 µM]	2.3e-08&1e-09	-1.6%[25.7 µM]	i	i
CCOC(=O)c1c(-c2ccccc2)oc2ccc(OC(=O)N(C)C)cc12	·	1e-09	-0.3%	i	i
CCOC(=O)C1C(=O)NC23CCCC2C1c1ccccc1O3 (stereo not given)	3%	7.6e-09	-0.6%	i	i
CCN1C[C@]2(C)CC[C@H](OC)[C@@]34[C@@H]2[C@H](OC(C)=O)[C@]2(OCO[C@@]25C[C@@H](OC)[C@@H]2C[C@@]3(O)[C@H]5[C@@H]2OC)[C@H]14	6%[25.6 µM]	1.6e-09	-0.1%[25.7 µM]	i	i
CCN(CC)C(=O)N[C@@H]1C=C2c3cccc4[nH]cc(c34)C[C@@H]2N(C)C1	?	1e-09&1e-09	·	i	i
Cc1cc(OC(=O)c2ccco2)c2c3c(c(=O)oc2c1)CCC3	6%[11.4 µM]	·	0.1%	·	·
CC(=O)NC1CC2CCC(C1)N2 (stereo not given)	-1%	1.7e-08	-0.9%	i	i
COc1ccc(Nc2ncc(C(=O)N3CCC4(CC3)OCCO4)c3ccccc23)cc1	-9%	6.2e-09	1.5%	i	i
O=C(Nc1ccccc1)N1CC2(CCN(C(=O)Oc3ccccc3)CC2)C1	?	2.1e-08	2.5%	i	i
CC(=O)[C@@H]1CC[C@H]2[C@H]3CC[C@H]4C[C@@H](O)CC[C@]4(C)[C@@H]3CC[C@]12C	12%	1.4e-09	-3.0%	i	i
O=C(c1ccncc1)N1CCC[C@@]2(CCN(Cc3nccs3)C2)C1	-4%	1.5e-08	2.6%	i	i
Cc1ccc(CCN2CC(C(=O)N3CCC4(CC3)OCCO4)CC2=O)cc1 (stereo not given)	-3%	4e-08	-1.3%	i	i
COC(=O)NC/C=C\c1nc(CC/C=C\C(=O)O[C@H]2C[C@H]3CC(=O)O[C@@H](/C=C\CC(C)C)C[C@@H]4CC[C@H](C)[C@H](C[C@@H](OC)C[C@H](C2)O3)O4)co1	20%[11.4 µM]	·	0.8%[11.5 µM]	·	·
O=C1NC(=O)C2(Cc3c(nc4ccccn4c3=O)N3CCCCCC32)C(=O)N1Cc1ccccc1 (stereo not given)	15%	3.6e-08	1.0%	i	i
CC(=O)CC(C)(C)n1c[n+](C)nn1	·	1e-09	·	i	i
O=C(CN1CCN(CCO)CC1)Nc1ccc(Cl)cc1C(=O)c1ccccc1	·	3.7e-08	·	i	i
C=CC=O	?	·	-0.5%	·	·
C[N+]1(C)C2CC(OC(=O)C(CO)c3ccccc3)CC1[C@@H]1O[C@H]21 (stereo not given in full)	9%	2.6e-08&5.8e-08	-2.3%&-1.0%	i	i

Brought forward from above: 3 entries; new compounds follow.
SMILES	TSHR ag	A647 autofl	AID923	Resorufin autofl	A488 fluor
O=C(CN1CCN(CCO)CC1)Nc1ccc(Cl)cc1C(=O)c1ccccc1	·	3.7e-08	·	i	i
C=CC=O	?	·	-0.5%	·	·
C[N+]1(C)C2CC(OC(=O)C(CO)c3ccccc3)CC1[C@@H]1O[C@H]21 (stereo not given in full)	9%	2.6e-08&5.8e-08	-2.3%&-1.0%	i	i
CC(C)(C)C(=O)CP(=O)(O)O	9%[11.4 µM]	1.4e-09	1.0%[11.5 µM]	i	i
O=C(CN1C2CCC1CC(O)(c1cccnc1)C2)Nc1ccc2c(c1)OCO2 (stereo not given)	2%	4.3e-09	1.9%	i	i
CC(C)c1cccc(C(C)C)c1O	?	1e-09&7.7e-09	-2.4%	i	i
O=C(Nc1ccc(OC(=O)N2CCCC2)cc1)N1CCOCC1	·	1e-09	0.3%	i	i
C[As+](C)(c1ccc(Br)c([N+](=O)[O-])c1)c1ccc(Br)c([N+](=O)[O-])c1.O=[N+]([O-])O	6%[11.4 µM]	4.2e-08	-1.8%[11.5 µM]	i	i
C=Cn1c(P(=S)(N2CCOCC2)N2CCOCC2)cc2c1CCCC2	·	4.7e-09	-0.1%	i	i
Nc1nc(N)c(N=Nc2ccc([As](=O)(O)O)cc2)c(=O)[nH]1	2%[11.4 µM]	4e-08	-0.7%[11.5 µM]	i	i
c1ccc(Nc2ccc(Nc3ccccc3)cc2)cc1	?	·	-0.9%	·	·
ClC(Cl)=C(c1ccc(Cl)cc1)c1ccc(Cl)cc1	?	·	0.9%&3.3%	·	·
CCN1CC=C(c2c[nH]c3ccccc23)CC1	-2%	·	2.9%	·	·
NS(=O)(=O)c1ccc(N=Cc2c(O)n(C3CCCCC3)c(=O)n(C3CCCCC3)c2=O)cc1	1%	·	0.6%	·	·
N#Cc1ccccc1Cn1cc(C(=O)C2CC2)c2ccccc21	?	1.4e-08	-1.7%	i	i
O=C1CC(=O)N(c2cccc(Cl)c2)C(=O)N1	-7%	1e-09	0.7%	i	i
CC(=O)O/C(=C1/C[C@H]2[C@@H]3CC=C4C[C@@H](OC(C)=O)CC[C@]4(C)[C@@H]3CC[C@]2(C)C1=O)C(F)(F)F	0%[11.4 µM]	1e-09	-0.1%[11.5 µM]	i	i
CC(=NCC1CCCO1)c1c(O)n(-c2ccccc2)c(=O)[nH]c1=O (stereo not given)	-8%	6.9e-09	0.4%	i	i
CCCCC(CC)COC(=O)c1ccccc1C(=O)OCC(CC)CCCC (stereo not given)	4%	·	-0.6%	·	·
CCOc1ccc(C2SCC(=O)Nc3c2c(=O)[nH]n3C2CCCCCC2)cc1 (stereo not given)	4%	·	2.3%	·	·
O=P(c1ccccc1)(c1ccccc1)N1CCCCC1	·	1e-09	·	i	i
S=C1NCCN1	?	·	4.4%	·	·
Nc1cccc(N=Cc2c(O)n(Cc3ccc(F)cc3)c(=O)[nH]c2=O)c1	·	1e-09	4.3%	i	i
COc1ccc(C2=NCC(=O)N(CC(=O)NCc3ccco3)c3sc4c(c32)CCCC4)cc1OC	·	1.8e-09	3.3%	i	i
CCOc1ccc(-n2c(O)c(C=Nc3ccc(N4CCOCC4)cc3)c(=O)[nH]c2=O)cc1	-8%	·	5.2%	·	·
NC(N)=Nc1ccc2[nH]c3c(c2c1)C[C@]1(O)[C@@H]2Cc4ccc(O)c5c4[C@]1(CCN2CC1CC1)[C@H]3O5	?	4.3e-08	-4.1%	i	i

Rewritten with each value named: part of the list above.
CC(C)c1cccc(C(C)C)c1O
- TSHR ag: ?
- A647 autofl: 1e-09&7.7e-09
- AID923: -2.4%
- Resorufin autofl: i
- A488 fluor: i

S=C1NCCN1
- TSHR ag: ?
- A647 autofl: ·
- AID923: 4.4%
- Resorufin autofl: ·
- A488 fluor: ·

A portion of the library (hit frequency here may not be typical).
